AmpC inh no det: blocks E. coli AmpC beta-lactamase in absence of detergent. P00811. AmpC nitrocefin hydrolysis, absorbance 480 nm, no detergent; potencies from a single point are estimates. Potency, µM (titrated, usually from 28.7 µM), for the others: at the top dose activity change, negative = inhibition. 71,000 tested, 1.8% active; active = falling curve, for most hits resting on a single point; inconclusive = weak or doubtful change; inactive = flat or rising curve; also: % of control where 0% means no effect; about half of the hits show no inhibition at the top dose; a quarter of the inactives give rising signals
Target sequence (P00811 whole entry, looked up): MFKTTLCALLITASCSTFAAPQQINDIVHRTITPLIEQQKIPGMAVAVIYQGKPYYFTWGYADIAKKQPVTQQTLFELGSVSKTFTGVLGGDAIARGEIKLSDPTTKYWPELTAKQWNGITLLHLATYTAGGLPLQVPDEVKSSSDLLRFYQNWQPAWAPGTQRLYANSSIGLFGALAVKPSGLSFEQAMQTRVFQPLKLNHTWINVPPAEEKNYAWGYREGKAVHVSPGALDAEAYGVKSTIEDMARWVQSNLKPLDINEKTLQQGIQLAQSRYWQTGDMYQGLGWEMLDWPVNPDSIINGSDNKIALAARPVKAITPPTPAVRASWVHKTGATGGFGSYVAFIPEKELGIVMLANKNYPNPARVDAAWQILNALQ
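Enzyme, pH 7.0 phosphate. Compound titrations were pre-incubated with AmpC for 15 min at room temperature before nitrocefin (stock 800 uM) addition; product formation was recorded at 480 nm every 20 s for 4 min.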
Active calls of the source: *; & = joins results of further samples; [ ] = remark or other dose. Potency is read from the fitted curve at half-maximal effect. Not all compounds are listed; rates above refer to the full screens.

For O=C(NC(c1ccccc1)c1ccccc1)N1CCN(CCO)CC1 the results were AmpC inh no det -9.2%.
`Cc1c(NC(=O)C2(C)CCCCC2)c(=O)n(-c2ccccc2)n1C` gave AmpC inh no det 0.6%.
`Nc1ccc(S(=O)(=O)N2CCCc3ccccc32)cc1` gave AmpC inh no det -7.6%.
Screening COC(=O)C1=C(C)Nc2ncnn2C1c1ccc(OCc2ccccc2)cc1 (stereo unspecified) returned AmpC inh no det -6.7%.
Screening COC(=O)C1=C(C)OC(N)=C(C#N)C1c1cc(OC)ccc1OC (stereo unspecified) returned AmpC inh no det -4.3%.
`CCCc1cc(C(=O)NC2CCCC2)no1` gave AmpC inh no det -4.5%.
For CC(C)CCON=O the results were AmpC inh no det -10.4%.
CCOC(=O)CCc1c(C)nc2c(c(C)nn2C(C)(C)C)c1C was read as AmpC inh no det 3.98µM*[single pt active].
For Cc1onc(-c2ccccc2Cl)c1C(=O)N1CCN(c2ccccc2)CC1 the results were AmpC inh no det 76.6%.
For O=C(NCCCN1CCCCC1)c1ccc2c(=O)n(CCc3ccccc3)c(=O)[nH]c2c1 the results were AmpC inh no det 24.3%.
`COc1cc(COCC(O)CN2CCOCC2)cc(OC)c1OC` (stereo unspecified) gave AmpC inh no det -0.2%.
`O=C(CC(NS(=O)(=O)c1ccc(Cl)cc1)c1ccco1)NCc1ccco1` (stereo unspecified) gave AmpC inh no det -4.8%.
O=C(O)C1CCCN1C(=O)OCc1ccccc1 (stereo unspecified) was read as AmpC inh no det 1.6%.
`COc1ccc(N2CCN(C(=O)c3cc4c(-c5ccc(Cl)cc5)nn(C)c4s3)CC2)cc1` gave AmpC inh no det 3.98µM*[single pt active].
Screening Cc1ccc(-c2nc3cc(N)ccc3o2)cc1 returned AmpC inh no det 37.1%.
O=C(Nc1ccccc1)N1CC=C(c2ccc(F)cc2)CC1 was read as AmpC inh no det 1.1%.
CCCCOc1ccc(-c2nnn(C(C)C(=O)OCC)n2)cc1 (stereo unspecified) was read as AmpC inh no det 57.4%.
COCCn1c(C)c(C(=O)O)sc1=S was read as AmpC inh no det -4.7%.
Screening COc1ccc(-c2ccc(N)[n+](CCCC(=O)O)n2)cc1 returned AmpC inh no det -14.5%[12.8 µM].
Screening CC(=O)Nc1ccc(OC(=O)N2CCCCC2)cc1 returned AmpC inh no det 17.6%.
CCc1cc(=O)oc2cc(OCc3nn[nH]n3)ccc12 was read as AmpC inh no det -10.8%.
`CN(C)C1=C(C#N)C(c2ccccc2)=NP(N(C)C)(N(C)C)=N1` gave AmpC inh no det -7.8%.
Screening O=C(Nc1ccccc1)N(CCCN1CCOCC1)Cc1ccccc1F returned AmpC inh no det 8.1%.
`Cc1cc(C)c2[nH]c(=O)c(C(c3nnnn3Cc3ccc4c(c3)OCO4)N3CCCCC3)cc2c1` (stereo unspecified) gave AmpC inh no det 13.9%.

Next part; the last 5 above are carried over.
Screening CC(=O)Nc1ccc(OC(=O)N2CCCCC2)cc1 returned AmpC inh no det 17.6%.
CCc1cc(=O)oc2cc(OCc3nn[nH]n3)ccc12 was read as AmpC inh no det -10.8%.
`CN(C)C1=C(C#N)C(c2ccccc2)=NP(N(C)C)(N(C)C)=N1` gave AmpC inh no det -7.8%.
Screening O=C(Nc1ccccc1)N(CCCN1CCOCC1)Cc1ccccc1F returned AmpC inh no det 8.1%.
`Cc1cc(C)c2[nH]c(=O)c(C(c3nnnn3Cc3ccc4c(c3)OCO4)N3CCCCC3)cc2c1` (stereo unspecified) gave AmpC inh no det 13.9%.
For COc1ccc(OC)c2sc(N3CCN(c4ccccc4)CC3)nc12 the results were AmpC inh no det 67.1%.
O=C(Nc1ccccn1)c1cccc(S(=O)(=O)N2CCCCC2)c1 was read as AmpC inh no det -1.2%.
`Cn1c(=O)[nH]c(=O)c2c1ncn2CCN1CCCCC1` gave AmpC inh no det 7.1%.
For CCOC(=O)c1cccc(NC(=O)CCc2nc(-c3ccccc3F)no2)c1 the results were AmpC inh no det 13.7%.
`CCCc1nc(C)c(-c2ccc(OC)c(OC)c2)c(=O)[nH]1` gave AmpC inh no det -4.0%.
Screening COC(=O)c1ccc(CN2C(=O)c3ccccc3S2(=O)=O)cc1 returned AmpC inh no det 3.9%.
O=C(Nc1cccnc1)C1CC(c2ccc(Cl)c(Cl)c2)=NO1 (stereo unspecified) was read as AmpC inh no det 35.6%.
`c1ccc(-c2ccc(N3CCCC4(CCNCC4)C3)cc2)cc1` gave AmpC inh no det 115.9%.
`CCOCCCNC(=O)C1CCN(S(=O)(=O)N2CCCCC2)CC1` gave AmpC inh no det -1.2%.
Screening CC(C)Sc1nnc([C@H](C)NC(=O)OC(C)(C)C)o1 returned AmpC inh no det 7.1%.
For O=C1CSC(c2cn(-c3ccccc3)nc2-c2ccccc2)N1Cc1ccco1 (stereo unspecified) the results were AmpC inh no det 45.1%.
COc1ccc(OC)c(-c2nnc(SCC(=O)N3CCCc4ccccc43)o2)c1 was read as AmpC inh no det 125.6%.
For O=C(c1cnccn1)N1CCC2(CC1)CN(C(c1ccccc1)c1ccccc1)C2 the results were AmpC inh no det 80.9%.
Screening Cc1ccc(S(=O)(=O)N2CCN(C(=O)c3ccccc3)C2C(C)C)cc1 (stereo unspecified) returned AmpC inh no det 21.4%.
CN(Cc1ccccc1)C(=O)C1CCN(Cc2ccc(F)cc2)CC1 was read as AmpC inh no det 13.3%.
`CCOC(=O)C(C)c1nn(C)c(=O)c2ccccc12` (stereo unspecified) gave AmpC inh no det 7.7%.
`O=C(O)/C(=C\c1ccccc1)Cc1ccccc1` gave AmpC inh no det 5.8%[5.75 µM].
Screening CC1CCCN(C(=O)CSc2nnc(-c3cccnc3)n2C2CCCCC2)C1 (stereo unspecified) returned AmpC inh no det 56.9%.
Screening CC(NC(=O)c1cc(-c2ccc(Br)cc2)on1)c1ccccc1 (stereo unspecified) returned AmpC inh no det inconclusive.
For CCCCc1nc2c(=O)[nH]c3ccccc3c2o1 the results were AmpC inh no det 9.5%.
For CCCC1(C(=O)OCC)NC(c2ccc(N(C)C)cc2)C2C(=O)N(c3ccccc3)C(=O)C21 (stereo unspecified) the results were AmpC inh no det 63.9%.
For Cc1cc(C)nc(N2CCCC(C(=O)Nc3ccc4nc(C)c(C)nc4c3)C2)n1 (stereo unspecified) the results were AmpC inh no det 148.5%.
For Cn1c(SCc2cc(=O)n3cc(Br)ccc3n2)nnc1C1COc2ccccc2O1 (stereo unspecified) the results were AmpC inh no det 41.0%.
Cn1c(SCC(=O)Nc2ccc3c(c2)oc2ccccc23)nnc1-c1ccccc1 was read as AmpC inh no det 3.5%.
CCCc1nc(-c2ccc(-c3ccc(F)cc3)cc2)no1 was read as AmpC inh no det -8.4%.
Screening CCSc1nnc([C@@H](N)Cc2c[nH]c3ccccc23)o1 returned AmpC inh no det 20.4%.
`CCC1CCCCN1S(=O)(=O)c1ccc(C(=O)Nc2nnc(-c3ccccc3Cl)o2)cc1` (stereo unspecified) gave AmpC inh no det -12.1%.
For O=C1OCCC1Sc1ncnc2sc3c(c12)CCC3 (stereo unspecified) the results were AmpC inh no det -3.9%.
`Cn1cnc2c(NCc3ccccc3)nc(NCCO)nc21` gave AmpC inh no det 14.4%&0.8%.
`COc1ccc(C2C(C#N)=C(N)OC3=C2C(=O)CC(C)C3)c(OC)c1OC` (stereo unspecified) gave AmpC inh no det 7.4%.
Screening O=C(N1CCOCC1)N(Cc1ccccc1)c1ccccn1 returned AmpC inh no det -8.0%.
COc1ccc(C2C(C(=O)NCc3ccccn3)c3ccccc3C(=O)N2C)cc1OC (stereo unspecified) was read as AmpC inh no det 16.0%.
COc1ccc(Cl)cc1C(=O)Nc1ccc2c(c1)OCO2 was read as AmpC inh no det -11.9%.
c1coc(CSCc2cn3cccnc3n2)c1 was read as AmpC inh no det -3.4%.
Cc1ccc(C(=O)CSc2nnc(-c3ccco3)o2)o1 was read as AmpC inh no det 21.3%.
Screening COc1ccc(C(=O)O)cc1S(=O)(=O)Nc1cccc(C)c1 returned AmpC inh no det -4.1%.
For O=C(CCNC(=O)Cn1cnc2ccccc2c1=O)NCC1COc2ccccc2O1 (stereo unspecified) the results were AmpC inh no det 30.8%.
`O=C(CSc1ccccc1C(=O)NCCCN1CCCC1=O)NCc1ccco1` gave AmpC inh no det 0.6%.
For NC(=O)c1ccc[n+]([C@@H]2O[C@H](COP(=O)([O-])OP(=O)(O)OC[C@H]3O[C@@H](n4cnc5c(N)ncnc54)[C@@H](O)[C@@H]3O)[C@@H](O)[C@@H]2O)c1 the results were AmpC inh no det -2.0%[12.8 µM].
NCCC[C@@H](CC(=O)N[C@@H]1CCNC[C@H]1C(=O)N[C@H](CC(=O)N[C@@H](CCC(=O)O)CC(=O)O)Cc1c[nH]c2ccccc12)NC(=O)C[C@H](Cc1c[nH]c2ccccc12)NC(=O)[C@@H]1CNCC[C@H]1N was read as AmpC inh no det 76.5%.
ClC=CCl was read as AmpC inh no det -4.1%.
Cc1ccc(NC(=O)NCCCN2CCOCC2)cc1 was read as AmpC inh no det -3.5%.
For COc1cc(OC)nc(NC(=O)CN2CCN(c3ccc(F)cc3)CC2)n1 the results were AmpC inh no det -11.9%.
`CC1Cn2c(nnc2-c2cc3ccccc3cc2O)S1` (stereo unspecified) gave AmpC inh no det -2.3%.
For O/N=C1\CCC2CN(C3CCCCC3)CC2C1 (stereo unspecified) the results were AmpC inh no det -1.7%.
Cc1cc(O)c(-c2cc(C(=O)NCc3ccc4c(c3)OCO4)[nH]n2)cc1C was read as AmpC inh no det -11.5%.
For CCOC(=O)c1c(NC(=O)CSc2n[nH]c(-c3ccco3)n2)sc(C)c1C the results were AmpC inh no det -17.0%.
Screening CCc1ccccc1S(=O)(=O)Cc1ccc(C(=O)NC(C)C)o1 returned AmpC inh no det 13.0%.
For Cc1ccc(N2CCN(c3ccc(C)cc3)C2c2ccncc2)cc1 the results were AmpC inh no det 10.4%.
For C[C@@H]1C[C@@]2(C)Oc3ccccc3[C@H]3OC[C@]1(COC(=O)Nc1ccccc1)[C@@H](C)[C@@H]32 the results were AmpC inh no det -5.4%.
`CCc1nc2ccccc2n1CC(=O)N1CCN(S(=O)(=O)c2cccc(C(F)(F)F)c2)CC1` gave AmpC inh no det 98.8%.
For CC(=O)Nc1ccc(SCC(=O)N(CCC#N)c2ccc(C)cc2)cc1 the results were AmpC inh no det 27.8%.
CSC1=NC2(CCCCC2)C2=C(CCCC2)N1 was read as AmpC inh no det -12.8%.
For Oc1ccc(N2CCN(c3ncnc4sc5c(c34)CCC5)CC2)cc1 the results were AmpC inh no det 36.7%.
O=C(CCNS(=O)(=O)c1ccc(Br)cc1)NCc1ccc2c(c1)OCO2 was read as AmpC inh no det -6.5%.
For Cc1ccc(C)c(-n2c(SCC(=O)Nc3nnc(C)s3)nnc2-c2ccoc2C)c1 the results were AmpC inh no det 91.3%.
O=C1N=C(N2CCOCC2)S/C1=C1\C(=O)N(Cc2ccccc2)c2ccc(Br)cc21 was read as AmpC inh no det 24.9%.
For COc1ccc(C(=O)N2CCC3(CC2)CN(c2cccc(-c4ccccc4)c2)C3)cc1 the results were AmpC inh no det 85.6%.
COc1ccc(Cl)c(S(=O)(=O)N2CCCC2)c1 was read as AmpC inh no det 2.6%.
`Cc1cc(=O)n2nc(N3CCCC(C(=O)N4CCN(C)CC4)C3)sc2n1` (stereo unspecified) gave AmpC inh no det 0.0%.
Screening Cc1cc(C(=O)NCCCn2ccnc2)sc1-c1ccccc1 returned AmpC inh no det 57.8%.
Screening COc1cccc(CN(Cc2cccnc2)S(=O)(=O)c2ccc(-n3cnnn3)c(C)c2)c1OC returned AmpC inh no det 13.3%.
Screening COc1ccc(C(=O)Nc2cc3c(cc2C#N)OCO3)cc1S(=O)(=O)N1CCN(C)CC1 returned AmpC inh no det 15.2%.
For CC1=CC(C)(C)C(C(=O)O)C(C(=O)O)C1 (stereo unspecified) the results were AmpC inh no det 2.5%.
Cc1ccc(OCCSc2nnc(-c3ccncc3)n2C)cc1 was read as AmpC inh no det 31.3%.
Screening Cc1ccccc1-c1ccc2ncnc(N3CCN(C)CC3)c2c1 returned AmpC inh no det 118.5%.
O=C(Cl)c1ccccc1F was read as AmpC inh no det -9.8%.
For COC(=O)c1cn(C)c2ccc(S(=O)(=O)N3CCCC3)cc2c1=O the results were AmpC inh no det -5.0%.
For CCN(CC)c1nc2ccccc2nc1C(C#N)C(=O)NCCCOC (stereo unspecified) the results were AmpC inh no det 89.6%.
For Cc1cc(=O)[nH]c(-n2nc(C)cc2C)n1 the results were AmpC inh no det -7.3%.
`Cc1ccc(-n2c(C)cc(C)c(C#N)c2=O)cc1Cl` gave AmpC inh no det -2.1%.
For C=CCc1ccccc1OCC(O)CN1CCN(c2ccccc2F)CC1 (stereo unspecified) the results were AmpC inh no det 37.8%.

Filtered by structure: the entries above with a tert-butyl group.
CCOC(=O)CCc1c(C)nc2c(c(C)nn2C(C)(C)C)c1C was read as AmpC inh no det 3.98µM*[single pt active].
Screening CC(C)Sc1nnc([C@H](C)NC(=O)OC(C)(C)C)o1 returned AmpC inh no det 7.1%.

(listing goes on)
O=C(c1cccnc1)N1C2C=CC(C2)C1(C(F)(F)F)C(F)(F)F (stereo unspecified) was read as AmpC inh no det -4.9%.
`O=C(CSc1nc2ccccc2n1CC(=O)N1CCCC1)Nc1ccc2c(c1)OCO2` gave AmpC inh no det 14.4%.
`Cc1ccc(C(C)C)c(OCC(=O)N2CCOCC2)c1` gave AmpC inh no det 28.2%.
For COc1ccccc1-c1nc(NCc2cnc(C)cn2)c2ccccc2n1 the results were AmpC inh no det 35.0%.

Fetched by compound from above:
`CCc1nc2ccccc2n1CC(=O)N1CCN(S(=O)(=O)c2cccc(C(F)(F)F)c2)CC1` gave AmpC inh no det 98.8%.
NCCC[C@@H](CC(=O)N[C@@H]1CCNC[C@H]1C(=O)N[C@H](CC(=O)N[C@@H](CCC(=O)O)CC(=O)O)Cc1c[nH]c2ccccc12)NC(=O)C[C@H](Cc1c[nH]c2ccccc12)NC(=O)[C@@H]1CNCC[C@H]1N was read as AmpC inh no det 76.5%.

Assay outcomes as filed in PubChem.
